Bioassay records (PubChem BioAssay)
TRPML1 ag = qHTS for Agonists of the Human Mucolipin Transient Receptor Potential 1 (TRPML1) | Mucolipin-1 (Homo sapiens), Q9GZU1 | TRPML1-expressing cells, Ca2+ dye fluorescence, FDSS; host cell line not named in the record; reference of the full effect not given here | activation, % (test concentration not listed) | 410,000 tested, 0.12% active | AID 624414, 2012; in the data active = activation above about 50%; inconclusive = about 30% to 50%; inactive = below about 30%; note: 0% is about no effect; the text of the record puts the active cut at 80%
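TRPML1-DL cells, Tet-induced overnight (~16 h, 37 degrees C), loaded 45-90 min at room temperature with Ca8 no-wash calcium dye plus quencher. FDSS fluorescence: 10 s baseline, compound pin-transfer, 110 s agonist read, then EC80 54-4 (4uM final) and 110 s antagonist read.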
TRPML1 blocker = qHTS for Inhibitors of the Human Mucolipin Transient Receptor Potential 1 (TRPML1). Mucolipin-1 (Homo sapiens), Q9GZU1. activity change, negative = inhibition, % (concentration not given with the values). 390,000 tested, 0.02% active. TRPML1-inducible cells, Ca2+ dye fluorescence, FDSS; stronger effect = lower value; inhibition of EC80 agonist-evoked calcium signal; in the data active means activity change below about -50%; inconclusive means about -30% to -50%; inactive means above about -30%;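 note: stimulus is agonist 54-4 at its EC80 concentration; % is set by controls: 0 for no effect and ±100 for the full control effect; compound concentration not given in the record; the text of the record puts the active cut at -80%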
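Tet-induced TRPML1-DL cells loaded with Ca8 no-wash calcium dye were read kinetically on FDSS. Compound addition was followed by EC80 agonist 54-4 (4 uM final); inhibition was read over 110 s.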
Menin-MLL FL inh = qHTS Assay for Inhibitors Targeting the Menin-MLL Interaction in MLL Related Leukemias: Competition With Fluorescein Labeled MLL-derived Peptide; Fluorescence polarization, fluorescein-MLL peptide displacement from menin; FP activity change, % at 61.4 µM; 290,000 tested, under 10 active; AID 1766, 2009; inconclusive = falling polarisation curve, or a change in total fluorescence; inactive = total fluorescence flat and polarisation flat or rising; no compound was filed as active; the % refers to the polarisation; negative = inhibition;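 note: % of control where 0% means no effect; inhibitors lower the polarisation; unlabelled MLL peptide was the positive control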
PINK1 modulator = A Quantitative High throughput Screen to Identify Chemical Modulators of PINK1 Expression; PINK1 immunofluorescence, high-content cytometry, 24 h; Potency, µM (titrated, usually from 76.6 µM), without a hit: top-dose activation (PINK1 increase), usual class: activators; 410,000 tested, 0.2% active; active = well fitted activation curve with a large enough effect; inconclusive = small, poorly fitted or top-dose-only effect; inactive = flat fitted curve, though single readings scatter; cell line not stated here;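 note: potency is the fitted concentration of half-maximal effect; % of control where 0% means no effect; nearly all actives have a fitted effect of over 65% in size; a mitochondrial uncoupler was the plate control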
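Cells are seeded, rested 12 hours, then given compound at five concentrations or DMSO for 24 hours. After fixation, blocking and antibody staining, PINK1 amount and mitochondrial localization are scored; CCCP serves as control.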
ClpP mod = qHTS Assay for Activators of ClpP; ATP-dependent Clp protease proteolytic subunit (Bacillus subtilis (strain 168)), P80244; purified B. subtilis ClpP, FRET peptide cleavage, 20 min; Potency, µM (top dose mostly 57.5 µM), inactives show at the highest dose activity change, negative = active; 340,000 tested, 1.9% active; active = well fitted falling curve with a large enough effect; inconclusive = small, poorly fitted or top-dose-only effect; inactive = no such curve, though single readings can be large or run the other way; note: potency is the fitted concentration of half-maximal effect; the source files actives as falling curves though it sought activators and does not explain the sign; nearly all actives have a fitted effect of over 65% in size; many hits overshoot -100%
Target sequence (P80244 whole entry, looked up): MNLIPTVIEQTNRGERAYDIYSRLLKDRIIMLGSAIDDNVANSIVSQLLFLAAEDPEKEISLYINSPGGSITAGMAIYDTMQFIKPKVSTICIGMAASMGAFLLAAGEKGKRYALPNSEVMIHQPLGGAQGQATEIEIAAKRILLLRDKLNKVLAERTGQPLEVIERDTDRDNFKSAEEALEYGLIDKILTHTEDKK
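Buffer: 100 mM Tris/HCl pH8, 100 mM KCl, 0.05% low protease BSA, 2.5% glycerol, 0.01% Tween-20. ClpP 10 microg/mL final; 20 min RT; delta FRET normalized to ADEP and DMSO controls.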
Sfp inh = qHTS Assay for Inhibitors of Bacillus subtilis Sfp phosphopantetheinyl transferase (PPTase). Potency, µM, inactives show max response, negative = inhibition, actives largely listed as inhibitors. 310,000 tested, 3.5% active. 4'-phosphopantetheinyl transferase ffp (Bacillus subtilis), Q9F4F7. AID 1490, 2009. Biochemical Sfp PPTase activity, qHTS; active = well fitted inhibition curve with a large enough effect; inconclusive = small, poorly fitted or top-dose-only effect, or another doubt; inactive = no such curve, though single readings can be large or run the other way;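 note: the enzyme is Sfp with the accession as filed and its product quenches rhodamine fluorescence; potency is the fitted concentration of half-maximal effect; 0% = enzyme reaction without inhibitor and -100% = no enzyme wells; top concentration of the series not given in the record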
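Step 1, compound plus 15 nM Sfp-PPTase, 15 min, room temperature. Step 2, add rhodamine-CoA (5 uM) and BHQ-2-YbbR (12.5 uM). Step 3, read 525/598 nm fluorescence at 0 and 30 min.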
TRPV1 PAM = HTS Assay for Compounds that Act as Potentiators of the Vanilloid Receptor 1; Transient receptor potential cation channel subfamily V member 1 (Homo sapiens), Q8NER1; potentiation, % at 8.33 µM; TRPV1-expressing cells, Fluo-8 calcium influx, capsaicin EC20 potentiation; host cell line not named in the record; control for the full effect not named in the record; AID 540277, 2011; 320,000 tested, 0.02% active; active means potentiation above 80%; inconclusive means 30% to 80%; inactive means below 30%; note: 0% is about no effect
Target sequence (Q8NER1 whole entry, looked up): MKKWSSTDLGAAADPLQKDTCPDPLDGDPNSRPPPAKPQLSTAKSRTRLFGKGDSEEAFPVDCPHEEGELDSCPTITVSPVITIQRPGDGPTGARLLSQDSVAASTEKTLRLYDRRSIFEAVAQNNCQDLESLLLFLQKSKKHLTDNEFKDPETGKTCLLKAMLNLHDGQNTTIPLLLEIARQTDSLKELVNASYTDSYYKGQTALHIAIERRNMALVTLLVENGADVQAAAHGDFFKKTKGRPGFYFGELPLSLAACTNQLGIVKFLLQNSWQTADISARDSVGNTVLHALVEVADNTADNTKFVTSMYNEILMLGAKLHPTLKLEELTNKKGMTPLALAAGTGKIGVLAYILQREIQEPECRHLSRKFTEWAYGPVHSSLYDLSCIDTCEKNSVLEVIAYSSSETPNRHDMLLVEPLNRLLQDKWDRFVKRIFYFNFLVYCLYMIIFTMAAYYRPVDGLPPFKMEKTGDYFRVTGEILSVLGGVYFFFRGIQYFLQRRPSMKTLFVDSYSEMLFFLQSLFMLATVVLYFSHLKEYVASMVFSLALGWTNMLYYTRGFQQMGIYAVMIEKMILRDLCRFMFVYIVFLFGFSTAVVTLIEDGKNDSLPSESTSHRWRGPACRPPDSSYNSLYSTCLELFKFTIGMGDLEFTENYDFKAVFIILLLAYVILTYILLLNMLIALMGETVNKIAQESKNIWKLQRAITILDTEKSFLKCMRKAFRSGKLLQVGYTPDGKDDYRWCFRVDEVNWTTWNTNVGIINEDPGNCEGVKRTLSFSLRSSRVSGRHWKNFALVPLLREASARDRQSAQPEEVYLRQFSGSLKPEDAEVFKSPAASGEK
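TRPV1-expressing cells were cultured overnight at 35.5C and loaded with Fluo-8 calcium dye for 40 to 90 min at room temperature. After a 10 s baseline, compound was added and calcium influx was read kinetically for 3 min (ex 480/em 520 nm).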
Numbers without * were called inactive; ? = inconclusive; / = no result given; [ ] = remark or other dose.

| smiles | TRPV1 PAM | Sfp inh | ClpP mod | Menin-MLL FL inh | TRPML1 ag | PINK1 modulator | TRPML1 blocker |
| --- | --- | --- | --- | --- | --- | --- | --- |
| Cc1[nH]c(=O)[nH]c(=O)c1S(=O)(=O)N1CCC(C(=O)N2CCN(c3cccc(C(F)(F)F)c3)CC2)CC1 | 15 | 8% | / | 0.4 | 1.0 | -1.1% | 21 |
| Cn1c(SCC(=O)NNC(=O)Cc2ccccc2)nnc1-c1ccccc1 | -10 | 15% | -1.4% | 4.4 | -0.1 | 1.4% | 2 |
| CCOc1ccccc1N(C)C(=O)C1CCCN(c2ncnc3c2nc2n3CCCCC2)C1 (stereo not given) | / | / | -1.0% | / | -0.8 | 4.6% | 10 |
| Cc1ccc(CC2CC(=O)N(c3nc4ccccc4s3)C2=O)cc1 (stereo not given) | 3 | 9% | -0.5% | -1.5 | 1.3 | -0.5% | -10 |
| Cc1cc(C)cc(NC(=O)CC2Oc3ccc(C)cc3NC2=O)c1 (stereo not given) | ? | 18% | 3.0% | 0.2 | 0.1 | 0.1% | 3 |
| CSc1ccccc1NS(=O)(=O)c1ccc2c(c1)OCCO2 | 8 | 16% | 0.2% | -2.9 | -0.3 | -0.9%[38.3 µM] | -7 |
| Cc1ccc(/C=N/NC(=O)c2nnn(-c3nonc3N)c2C)o1 | 16 | 8% | -0.2% | / | -0.5 | -0.9% | -17 |
| Cc1cccc(NC(=O)CS(=O)(=O)Cc2ccccc2)n1 | -10 | 17% | 0.7% | 4.7 | -0.9 | 0.3% | 3 |
| COc1ccc(-c2noc(CN(C(=O)c3ccc4c(c3)OCO4)C(C)C)n2)cc1 | 2 | 2% | / | 2.6 | 1.1 | -1.1% | 25 |
| O=C(CNC(=O)C1COc2ccccc2O1)N/N=C\c1ccccc1Cl (stereo not given) | 6 | -4% | / | / | 1.6 | 1.2% | 14 |
| CC(C)(CO)NCc1c(OCc2ccc(Cl)cc2)ccc2ccccc12 | 15 | -10% | / | -1.0 | -0.8 | -1.2% | -15 |
| COC(=O)C/C(N)=C(\C#N)C(=O)OC | 6 | 6% | -2.3% | 1.2 | 1.0 | 0.6% | 25 |
| CS(=O)(=O)c1ccc(Nc2nc(C(N)CCc3ccccc3)cs2)cc1 (stereo not given) | / | / | -7.9% | / | -0.6 | 4.1% | / |
| O=C(COc1ccccc1Cl)NNC(=O)c1cc(S(=O)(=O)N2CCOCC2)ccc1N1CCCC1 | 11 | 36%[activator] | -1.3% | / | 0.4 | 2.0% | 0 |
| O=C(NCCCO)c1ccc2[nH]c3ccccc3c2c1 | 6 | 8% | ? | 1.3 | -1.5 | 0.5% | -27 |
| COc1cc(C(=O)NCCOc2ccccc2C)cc(OC)c1OC | 4 | 5% | -2.4% | 0.0 | 1.7 | -1.0% | -3 |
| C/C(=N\Nc1nncc2ccccc12)c1ccc(Cl)c([N+](=O)[O-])c1 | -2 | -3% | / | -11 | 0.9 | 13% | -5 |
| O=S(=O)(c1cccc(NC(=S)N2CCN(c3ccccc3)CC2)c1)C(F)F | -6 | 1% | -3.4% | 2.9 | -0.1 | 3.4% | 0 |
| Cc1ccc(-n2sc3cc(F)ccc3c2=O)c(C)c1 | / | / | 0.0% | / | 5.9 | ? | -3 |
| COc1ccc(S(=O)(=O)NNC(=O)c2ccc([N+](=O)[O-])cc2)cc1 | -8 | -5% | 0.1% | 1.8 | -0.2 | 1.2% | -4 |
| Nc1cc(N)nc(SCC(=O)NCCC2=CCCCC2)n1 | -12 | / | -4.1% | / | -0.2 | -5.2% | 2 |
| Cc1cc(NC(=O)COC(=O)c2cc3c(s2)CCC(C)C3)no1 (stereo not given) | 20 | 9% | 0.1% | 3.4 | 0.2 | -1.6% | 0 |
| COc1ccc(CNc2ncccc2[N+](=O)[O-])cc1 | -5 | 8% | / | -1.1 | 0.7 | 3.9% | -12 |
| O=C(c1ccc(C(F)(F)F)cc1)C1CCCN(C(=O)CCN2CCCO2)C1 (stereo not given) | 16 | -1% | / | -0.1 | 0.0 | 2.6% | 34 |
| COCc1ccc(C(=O)N2CCCC(N(C)CCc3ccc(OC)c(OC)c3)C2)s1 (stereo not given) | -12 | 16% | -2.0% | / | 0.5 | 2.9% | -4 |
| CCN1C(=O)/C(=C/c2ccc(OC)c(OC)c2)N=C1SCC(=O)NCc1ccco1 | 0 | 8% | -9.7% | 0.6 | -1.5 | -2.2% | -7 |
| Fc1ccc(-n2nnc(-c3cccnc3)n2)cc1 | -4 | 11% | -3.2% | -2.1 | 0.1 | -0.5% | 12 |
| Cc1cc(C(=O)COC(=O)CN=C2NS(=O)(=O)c3ccccc32)c(C)n1CCc1ccc(Cl)cc1 | -23 | 8% | -3.0% | 5.2 | 1.5 | -1.4% | 8 |
| Cc1ccc2c(c1)N(CC(=O)N1CCCCC1c1cccnc1)C(=O)CO2 (stereo not given) | 5 | 17% | -0.1% | 3.4 | -0.2 | ? | 2 |
| CC(=O)Nc1nc(C(F)(F)F)cs1 | 9 | 13% | 1.7% | 1.9 | 0.7 | 4.7% | -5 |
| O=C(Nc1ccc2c(c1)OCCO2)C(c1ccnc2ccccc12)N1CCN(C/C=C/c2ccccc2)CC1 (stereo not given) | / | / | -0.8% | / | 0.5 | 2.3% | / |
| CCc1ccc(/C=N/NC(=O)c2nnn(-c3nonc3N)c2CN2CCc3ccccc32)cc1 | -2 | ? | / | 1.3 | 0.1 | 2.1% | -10 |
| Cc1ccccc1-n1nc(SCC(=O)O)sc1=S | -7 | 8% | 1.5% | -5.2 | -0.8 | 1.0% | -7 |
| COc1cccc(Nc2cc(-c3ccccc3)nc(C)n2)c1 | / | / | -28% | / | 0.6 | 0.9% | -11 |
| NS(=O)(=O)c1cccc(NC(=O)CN2C(=O)C(=O)N(Cc3ccccc3)C2=O)c1 | / | / | / | / | 0.2 | 1.9% | -8 |
| Cc1ccc(C)c(S(=O)(=O)N2CCN(c3ncccn3)CC2)c1 | -3 | -18% | / | 1.5 | -0.3 | -0.2% | 7 |
| CCCc1nnc(NC(=O)COc2ccc3c(c2)OCO3)s1 | 9 | -11% | / | -1.4 | 1.2 | 3.4% | 6 |
| CCOc1ccc(C2C(C(=O)c3ccc(C)o3)=C(O)C(=O)N2CCCN(CC)CC)cc1 (stereo not given) | 0 | -20% | -0.6% | 2.0 | 0.5 | -0.1% | -5 |
| COc1ccc(CC(NC(C)=O)C(=O)NC2CCN(S(=O)(=O)c3ccccc3)CC2)cc1OC (stereo not given) | 19 | 7% | -1.1% | 2.4 | 0.0 | -2.0%[38.3 µM] | -13 |
| COc1ccc(N2CCN(C(=O)c3ccccc3Br)CC2)c([N+](=O)[O-])c1 | 6 | 3% | / | 0.9 | 1.4 | 0.8% | 8 |
| O=C(Nc1nnc(-c2ccccc2)o1)c1cc(Cl)sc1Cl | 19 | 2% | 1.5% | -3.0 | 0.2 | 1.0% | -2 |
| COc1ccc(NC(=O)CN(c2ccc(OC)c(Cl)c2)S(=O)(=O)c2ccccc2)cc1 | 13 | 17% | 1.1% | -1.5 | 1.8 | 4.5% | 1 |
| CCOc1ccccc1/C=C(\C#N)C(=O)Nc1cccc(C(=O)O)c1 | -2 | 9% | / | 0.2 | 0.3 | 7.5% | -3 |
| CC(C)(C)OC(=O)C[C@@H]1C/C=C\C[C@H](CC(=O)NCCO)C(=O)NC[C@H](c2ccccc2)OC1=O | / | / | 0.8% | / | 0.5 | 2.1% | 7 |
| CC(=O)c1cccc(NC(=O)Nc2nnc(N3CCCC3)s2)c1 | / | / | -0.7% | / | 0.1 | 0.4% | -7 |
| CCN(CC)C(=O)CSc1nc2c(sc(=S)n2-c2ccccc2)c(=O)n1Cc1ccco1 | 10 | 40µM* | 0.8% | 1.1 | -0.1 | -5.2%[38.3 µM] | -5 |
| O=C(c1ccccc1NS(=O)(=O)c1ccc(Br)s1)N1CCCC1 | -35 | 9% | 16µM* | -2.9 | -0.5 | -2.1% | 4 |
| CCCCCCC(=O)N/N=C1\CCCc2ccccc21 | -11 | -6% | -0.1% | 14 | -0.4 | 9.8% | -22 |
| NC(=O)c1ccc(OCc2ccccc2)nc1 | / | / | -14% | / | -0.2 | 0.2% | 12 |
| COc1cc(N2C(=O)c3ccccc3C2=O)c(Cl)cc1C(=O)OCC(=O)N(C)C | -2 | 6% | / | -5.6 | -0.4 | 3.4% | 11 |
| CN=C1SC(CC(=O)Nc2cc(Cl)ccc2Cl)C(=O)N1C (stereo not given) | 9 | -12% | 2.1% | -2.1 | -0.3 | 32%[38.3 µM] | 4 |
| Cc1cc(O)c2/c(=N\N)c(-c3csc(C)n3)coc2c1 | -4 | 6% | / | 4.5 | -0.7 | 3.5% | -1 |
| O=Cc1cn(-c2ccccc2)nc1-c1ccc2c(c1)OCCO2 | -14 | -10% | 41% | -1.7 | -0.4 | 1.6% | -5 |
| CCOC(=O)Cc1csc(NC(=O)CCCC(=O)O)n1 | 18 | -3% | 1.6% | 4.3 | -0.4 | 0.1% | 1 |
| Cc1ccc(C)c(NC(=O)COC(=O)CCC(=O)c2cccs2)c1 | -1 | 17% | -0.7% | -4.0 | 0.3 | 1.5% | -3 |
| COc1cccc(-c2ccc(SCC(=O)c3ccccc3)nn2)c1 | 0 | 4% | / | 5.9 | 2.5 | -0.6% | -15 |
| COC(=O)C1CC(=O)N(c2ccc(OCc3ccccc3Cl)cc2)C1 (stereo not given) | 24 | 0% | -1.3% | 1.5 | -0.6 | -0.8% | 6 |

Some entries already given, showing only PINK1 modulator and TRPML1 blocker:
| Compound | PINK1 modulator | TRPML1 blocker |
| --- | --- | --- |
| O=C(c1ccccc1NS(=O)(=O)c1ccc(Br)s1)N1CCCC1 | -2.1% | 4 |
| CCCCCCC(=O)N/N=C1\CCCc2ccccc21 | 9.8% | -22 |
